Source: PubChem (National Center for Advancing Translational Sciences (NCATS))
SmPrx2 inh: Schistosoma Mansoni Peroxiredoxins (Prx2); hit rate 0.07% among 65,000; Schistosoma mansoni peroxiredoxin 2 (Prx2); Potency, µM; S. mansoni Prx2 activity coupled to TGR/GSH (TGR is thioredoxin glutathione reductase), NADPH fluorescence loss, qHTS; some inactives read as strong as hits; AID 448, 2006; active means full or partial inhibition curve with a strong effect at the top dose; inconclusive means weaker partial or single-point curve; inactive means no accepted curve; also: series up to 57 µM; many of its hits are not listed in these tables
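Prx2 activity was followed as the loss of NADPH fluorescence (ex 365/em 450 nm), read every 30 sec for 8 min after H2O2 start. The enzyme mix (50 nM Prx2, 25 nM TGR, GSH, NADPH; pH 7.4 phosphate buffer) was incubated with compound for 15 min at room temperature first.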
LT uptake inh: qHTS Assay for Anthrax Lethal Toxin Internalization; hit rate 0.67% among 70,000; Cells, anthrax lethal toxin internalization, FRET ratio (460/530); Potency, µM (titrated, usually from 40 µM), inactives show at the top dose activity change, negative = inhibition, usual class: inhibitors; AID 912, 2007; active = well fitted falling ratio curve with the 530 nm signal flat; inconclusive = other ratio curves, or a change in one channel alone; inactive = flat curves in the ratio and both channels; the % refers to the ratio; also: % is scaled to controls: 0 for no effect and ±100 for the full control effect; nearly all actives have a fitted effect of over 50% in size; tested in ME-180 cells; beta-lactamase reporter
* = called active by the depositor; ? = inconclusive; nt = not tested or not shown; & = joins results of further samples; [ ] = dose if it differs, or a comment. Potency is read from the fitted curve at half-maximal effect. An excerpt; rates above refer to the full screens.

Sequence of screens – SmPrx2 inh | LT uptake inh
COC(=O)N1CCc2cc(OC)c(OC)cc2C1Cc1ccc(OC)cc1 (configuration not stated)
    nt | -11%[8 µM]
O=C1CCC(=O)N1OCCCOc1ccc2c(c1)CCC2
    >57 | 12%
Cc1ccccc1Cn1c(CN2CCN(c3ccc(F)cc3)CC2)nc2c1c(=O)n(C)c(=O)n2C
    >57 | ?
O=C1CN(C(=O)COC(=O)CCC(=O)c2ccc3c(c2)OCCO3)c2ccccc2N1
    >57 | 14%
C/C(=N\O)c1cccc[n+]1Cc1ccccc1
    >57 | -9%[8 µM]
Cc1ccccc1Cn1cc(S(=O)(=O)CC(=O)Nc2nccs2)c2ccccc21
    >57 | ?
Cn1c(=O)[nH]c(=O)c2c1nc(SCC(=O)O)n2CCc1ccccc1
    >57 | ?
Cc1nn(-c2cccc(C(F)(F)F)c2)c(Cl)c1/C=N/n1cnnc1
    >57 | 0%
C1=C(c2ccccc2)CCN(c2nc3ccccc3n3cnnc23)C1
    >57 | ?
CCOC(=O)Cn1c(CN(Cc2ccccc2)Cc2ccccc2)nc2c1c(=O)[nH]c(=O)n2C
    >57 | 7%
NCCSSCCN
    >57&>57 | 0%[8 µM]
Cc1cc(C)nc(SCc2nnc(SCC#N)n2-c2cccc(Cl)c2)n1
    >57 | -19%
CCc1ccccc1N(CC(=O)N1CCN(c2ccc(F)cc2)CC1)S(C)(=O)=O
    >57 | -14%
O=C(c1cnccn1)N1CCC[C@@]2(CCN(c3cccc(-c4ccccc4)c3)C2)C1
    >57 | ?
CCCCN(C)C(=O)c1ccc2c(c1)N(CC)C(=O)c1ccccc1S2(=O)=O
    >57 | 9%
CCCCCCCCCc1ccc(O)cc1
    nt | ?
CCCc1cc(N2CCN(c3ccccn3)CC2)n2nc(C)c(-c3ccccc3)c2n1
    >57 | -6%
CC(=NCc1cccnc1)c1c(O)n(C2CCCCC2)c(=O)[nH]c1=O
    >57 | ?
COc1ccc(C2NC3=C(CCCC3)C(C#N)(C#N)C2(C#N)C#N)cc1 (configuration not stated)
    >57 | ?
CCOc1ccc2[nH]c(=O)c(CN(Cc3ccc(F)cc3)C(=O)c3ccco3)cc2c1
    >57 | ?
Clc1ccc(Oc2nc(Oc3ccc(Cl)cc3)nc(N3CCOCC3)n2)cc1
    >57 | ?
Cc1cc([C@](C)(N)C(=O)O)ccc1P(=O)(O)O
    >57 | -10%
O=C(NCCOc1ccccc1)C1CCCN1C(=O)c1cccs1 (configuration not stated)
    >57 | 28%
Cc1nc2ncnn2c(N2CCN(C(=O)c3cccc(F)c3)CC2)c1Cc1ccccc1
    >57 | -1%
COC(=O)CSc1ncccc1-c1nc2ccccc2[nH]1
    >57 | 7%
CCn1c(SCC(=O)Nc2ccc(S(N)(=O)=O)cc2)nnc1-c1cccc(OC)c1
    >57 | nt
Nc1c(O)cccc1C(=O)C[C@@H](N)C(=O)O
    >57 | -2%[3.58 µM]
Cc1cc(C(F)F)n2nc(C(=O)Nc3ccccc3Br)nc2n1
    >57 | 13%
O=C(C1CCC1)N1CCc2cc(S(=O)(=O)NCCN3CCN(c4ccccc4F)CC3)ccc21
    >57 | 6%
Nc1ccc(Cl)cc1Cl
    nt | ?
Cc1cccc(Nc2ncc3c(n2)CC(C)CC3=O)c1 (configuration not stated)
    >57 | -8%
COc1ccccc1N1CCN(C(=O)N2CCOCC2)CC1
    nt | -15%
COc1ccc(N=c2oc3c(OC)cccc3cc2C(=O)NCc2ccco2)c(OC)c1
    >57 | -10%
COC(=O)N1CCC2(CCCN(Cc3ccccc3OC)C2)CC1
    >57 | ?
CCOc1ccccc1/C=c1\sc2ncnn2c1=O
    >57 | 8%
CC(=O)Nc1ccc(S(=O)(=O)N2CCN(C(C)CCc3ccccc3)CC2)cc1 (configuration not stated)
    nt | -16%
CCN1CCN(C(=O)C2CCN(Cc3nc(-c4cccc(Cl)c4)oc3C)CC2)CC1
    >57 | ?
COc1cccc(Cn2c(=O)c(-c3ccc(Cl)cc3)nc3cnc(N4CCN(C)CC4)nc32)c1
    >57 | ?
COC(=O)c1ccccc1NC(=O)C1CCCN(S(=O)(=O)c2ccccc2)C1 (configuration not stated)
    >57 | -25%
Cn1nnnc1SCc1ccccc1F
    >57 | -3%
Cc1cc(C)c(S(=O)(=O)N(CC(=O)N2CCCC2)C2CCCCC2)c(C)c1
    >57 | -10%
CCN(CC)S(=O)(=O)c1ccc(Cl)c(C(=O)OC)c1
    nt | 5%
CCOC(=O)c1ccc(-n2ncc(C(=O)OCC)c2N)cc1
    >57 | ?
CO[C@H]1COC(=O)[C@@H](C)COC(=O)[C@H](C)NC(=O)C/C=C\[C@H]1C
    nt | 0%[1.6 µM]
COCCn1c(Cc2ccccc2)nnc1SCC(=O)Nc1cc(C)on1
    >57 | -8%
CCCCOC(=O)C1=C(N)OC2=C(C(=O)CCC2)[C@]12C(=O)Nc1ccccc12
    >57 | 8%
Cc1[nH]c2ccccc2c1C(=O)COC(=O)C1CC(=O)N(Cc2ccco2)C1 (configuration not stated)
    >57 | ?
COc1cc(-c2nnc(SCC(=O)N(Cc3ccccc3)C(C)(C)C)o2)cc(OC)c1OC
    >57 | ?
CCCn1c(SCC(=O)Nc2cccc(C(=O)OCC)c2)nnc1-c1ccoc1C
    >57 | -14%
CCn1c(CNC(=O)Cc2ccc(OC)cc2)nnc1SCC(=O)Nc1nccs1
    >57 | 4%
CC1CCc2ccc(F)cc2N1S(=O)(=O)c1cccs1 (configuration not stated)
    >57 | -11%
O=C(NC1CCCC1)NS(=O)(=O)c1ccccc1Cl
    >57 | -8%
COc1ccc(C(=O)OCCN2C(=O)c3ccccc3C2=O)cc1OC
    nt | 5%
Cc1c(OCc2nn[nH]n2)ccc2c3c(c(=O)oc12)CCC(C)C3 (configuration not stated)
    >57 | ?
COCC(=O)N1CCC2(CCN(Cc3nccs3)CC2)CC1
    >57 | 11%
CN(C)c1ncc2nc(CCc3ccccc3)c(=O)n(C[C@H]3CCCO3)c2n1
    >57 | ?
COc1ccc(OC)c(S(=O)(=O)N(C)CC(=O)N2CCN(c3ccccc3F)CC2)c1
    >57 | -4%
c1nc(N2CCNCC2)c2cc(-c3ccoc3)ccc2n1
    >57 | ?
CCC(C)NC(=O)C1CCN(S(=O)(=O)N2CCCC2)CC1 (configuration not stated)
    >57 | 13%
CCn1c(SCC(=O)c2cc(OC)ccc2OC)nc2c1c(=O)n(C)c(=O)n2C
    >57 | 2%

Next part
Sequence of screens – SmPrx2 inh | LT uptake inh
Cc1ccc(-c2c(C)n([O-])c3c([n+]2=O)CCCCC3)o1
    nt | 7%
CCN(c1ccccc1)S(=O)(=O)c1ccc(OCc2c(C)noc2C)cc1
    >57 | 17%
N#CCSCC(=O)Nc1ccccc1
    >57 | nt
COc1ccc(CSCCN)cc1Cl
    >57 | -1%
CCOC(=O)c1c(CC(C)C)csc1NC=O
    >57 | -18%
CCc1ccc(N2CC(C)Cn3c2nc2c3c(=O)n(CCN3CCOCC3)c(=O)n2C)cc1 (configuration not stated)
    >57 | -16%
O=C(Oc1ccccc1)N1CCC2(CC1)CCN(c1ncccn1)CC2
    >57 | 5%
CCOc1ccc(-c2nc(-c3ccncc3)no2)cc1OCC
    >57 | nt
Cc1nc(C)c(C(=O)C2=C(O)C(=O)N(CCN(C)C)C2c2ccccc2)s1 (configuration not stated)
    >57 | nt
COc1cc(N(C)C)c(NC(C)=O)cc1C(=O)O
    >57 | 1%
CCOc1ccc(NC(=O)c2nnn(CC(=O)Nc3ccccc3OCC)c2N)cc1
    >57 | ?
N#Cc1nc(COc2ccc(F)cc2)oc1N1CCC(Cc2ccccc2)CC1
    >57 | -15%
COc1ccc(S(=O)(=O)N[C@H](C(=O)O)C(C)C)cc1
    >57 | 6%
COc1ccc2c3c(ccc2c1)N[C@H](C(=O)O)CC3
    >57 | 4%[8 µM]
Cc1ccc(S(=O)(=O)C2(C(=O)N3CCCCC3C)CC2)cc1 (configuration not stated)
    >57 | 12%
COc1ccc(CCNC(=O)c2cnn3cccnc23)cc1OC
    >57 | 9%
CC(C)CC1(C(=O)O)NC(c2ccccc2O)C2C(=O)N(C(C)C)C(=O)C21 (configuration not stated)
    >57 | -3%
COC(=O)c1cccc(NC(=O)CSc2nc3cccnc3n2C)c1
    >57 | -22%
CCOC(=O)c1ccc(N(CC(=O)NC2CCCC2)C(=O)CNC(=O)c2ccco2)cc1
    >57 | -2%
CCCC(=O)Nc1ccc(C(=O)NCCCn2ccnc2)cc1
    >57 | nt
Clc1cccc(OCCN2CCOCC2)c1
    >57 | -2%
O=C(CS(=O)(=O)c1c[nH]c2ccccc12)Nc1ccc2c(c1)OCCO2
    >57 | 1%
O=C(c1cc2nc(-c3ccc(F)cc3)cc(C(F)(F)F)n2n1)N1CCOCC1
    nt | -3%
O=C(NCc1ccccn1)C(F)(F)C(F)(F)C(=O)NCc1ccccn1
    >57 | 9%
COc1cccc(C2=NOC(C(=O)N3CCN(c4ccccc4)CC3)C2)c1OC (configuration not stated)
    >57 | -11%
CC(C)(C)OC(=O)NCCc1nnc(SCc2ccccc2Cl)o1
    >57 | -13%
CC(C)=CCC/C(C)=C/CO/N=C1/[C@H]2O[C@@H]2[C@@H](O)[C@H]2[C@H]1CCn1c(=O)n(Cc3cc4c(cc3Cl)OCO4)c(=O)n12
    nt | -16%[8 µM]
CCCCn1c(CCNC(=O)CCC)nc2ccccc21
    >57 | 0%
O=C(O)C(Br)CBr (configuration not stated)
    nt | -9%
Cc1cc(C)c2[nH]c(=O)c(=O)[nH]c2c1
    >57 | 11%
CC(=O)Nc1ccc(S(=O)(=O)N(Cc2ccco2)CC2CCCO2)cc1 (configuration not stated)
    >57 | nt
CC(=O)Nc1ccc(S(=O)(=O)Nc2nc3c(s2)CCCC3)cc1
    >57 | -6%
c1ccc(Oc2ccccc2)cc1
    nt | 12%
COc1cc(/C=C/C2=NC(=O)C(C)(C)O2)ccc1O
    >57 | 11%
Cc1ccc(Cn2ccc(NC(=O)c3cc(CC(C)C)on3)n2)cc1
    >57 | ?
Cn1c(SCC(=O)N2CCCC2)nc2ccccc2c1=O
    >57 | -17%
O=C(CS(=O)(=O)Cc1ccccc1)Nc1ccccn1
    >57 | 6%
FC(F)(F)c1ccccc1-c1nc(NCc2cccs2)c2ccccc2n1
    >57 | ?
Cc1ccc(NC(=O)Cn2c(=O)n(CCCC(=O)NCc3ccco3)c(=O)c3ccccc32)cc1
    >57 | 2%
CC1Cc2ccccc2N1C(=O)CSc1nnnn1Cc1ccccc1 (configuration not stated)
    >57 | -16%
COc1ccc2oc(=N)c(C(=O)Nc3ccccc3)cc2c1
    >57 | -8%
COc1ccc(OC)c(N2C(=O)C(Cl)=C(N3CCCCC3)C2=O)c1
    >57 | -14%
Cc1csc(NC(=O)CCc2nc3ccccc3s2)n1
    >57 | -19%
Cn1c(C(=O)N2CCCCCC2)cc2c(=O)n(C)c3ccccc3c21
    >57 | -1%
CCc1c(C)[nH]c2c1C(=O)[C@H](CN1CCOCC1)CC2
    >57 | -5%[3.58 µM]
COc1cccc2cc(-c3nnc(SCC(=O)Nc4cc(C(F)(F)F)ccc4Cl)n3N)oc12
    >57 | -6%
O=[N+]([O-])c1ccccc1O
    nt | -16%
CC(NS(=O)(=O)c1ccc(Br)cc1)C(N)=O (configuration not stated)
    >57 | 19%
Cc1ccc(S(=O)(=O)N2CCN(C3CC(=O)N(Cc4ccccc4)C3=O)CC2)cc1C (configuration not stated)
    >57 | -12%
CC(=O)c1cccc(NC(=O)NCc2cccnc2)c1
    >57 | 2%
Cc1c(Cl)cccc1NC(=O)c1cc(-c2ccc(O)cc2)on1
    >57 | ?
COc1ccccc1CCC(=O)Nc1nc2ccccc2[nH]1
    >57 | -21%
Cn1c(COc2ccccc2)nnc1SCCC(=O)Nc1ccccc1
    >57 | -8%
CCCn1nnnc1NCc1ccccc1OCc1ccc(F)cc1
    >57 | -8%
CC(=O)C1=C(C)NC(C)=C(C(C)=O)C1c1ccc(-c2ccccc2Cl)o1
    nt | ?
COc1cccc(C(=O)NCCC2=CCCCC2)c1OC
    >57 | -11%
O=C(c1ccc(S(=O)(=O)Nc2ccccc2)cc1)N1CCOCC1
    >57 | -4%
O=C(Cc1ccccc1)N1CCN(C(=O)c2cccs2)CC1
    >57 | -21%
Cn1cc(CNC(=O)Nc2ccc3c(c2)OCO3)cn1
    ? | -14%
OCCNc1nc(OCC(F)(F)F)nc(N2CCN(C34CC5CC(CC(C5)C3)C4)CC2)n1
    >57 | -7%

Profiles, looked up by structure. Order of values: SmPrx2 inh	LT uptake inh
CC1Cc2ccccc2N1C(=O)CSc1nnnn1Cc1ccccc1 (configuration not stated) reads >57	-16%
CC(=O)c1cccc(NC(=O)NCc2cccnc2)c1 reads >57	2%
O=C(c1ccc(S(=O)(=O)Nc2ccccc2)cc1)N1CCOCC1 reads >57	-4%
Cn1c(SCC(=O)N2CCCC2)nc2ccccc2c1=O reads >57	-17%
COc1cc(/C=C/C2=NC(=O)C(C)(C)O2)ccc1O reads >57	11%
